VDR inhibitor: vitamin D3 receptor (human) inhibition; VDR-SRC2-3 peptide fluorescence polarization, 2 h; Potency, µM, without a hit: max response, negative = inhibition, most hits filed as inhibitors; actives 0.93% (n = 400,000); AID 504847; active = well fitted inhibition curve with a large enough effect; inconclusive = small, poorly fitted or top-dose-only effect, or another doubt; inactive = no such curve, though single readings can be large or run the other way; also: series mostly up to about 120 µM
Target sequence (P11473 whole entry, looked up): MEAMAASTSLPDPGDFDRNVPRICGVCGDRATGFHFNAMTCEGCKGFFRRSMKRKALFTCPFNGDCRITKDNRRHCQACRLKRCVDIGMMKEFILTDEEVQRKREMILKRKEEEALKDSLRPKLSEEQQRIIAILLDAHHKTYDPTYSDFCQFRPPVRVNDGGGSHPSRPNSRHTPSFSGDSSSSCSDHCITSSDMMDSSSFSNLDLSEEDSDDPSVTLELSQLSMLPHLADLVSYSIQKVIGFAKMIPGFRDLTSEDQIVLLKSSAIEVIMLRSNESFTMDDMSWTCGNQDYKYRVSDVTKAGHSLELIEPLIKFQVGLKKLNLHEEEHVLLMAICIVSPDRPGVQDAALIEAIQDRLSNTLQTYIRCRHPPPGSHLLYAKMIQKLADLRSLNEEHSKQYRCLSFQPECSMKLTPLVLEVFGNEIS
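Compounds are added to VDR with labelled SRC2-3 coactivator peptide and held 2 h at room temperature. Inhibition of the VDR–peptide interaction is then read as a change in fluorescence polarization.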
Numbers without * were called inactive; ? = inconclusive; & = joins results of further samples; [ ] = dose if it differs, or a comment. % is scaled to controls: 0 for no effect and ±100 for the full control effect; potency is read from the fitted curve at half-maximal effect. Some of the compounds tested, so the mix of outcomes need not match the whole.

SMILES	VDR inhibitor
COc1ccc(CCNC(=O)C(C)c2ccc([N+](=O)[O-])cc2)cc1 (stereo not drawn)	14%
O=c1cc(C(Cl)(Cl)Cl)oc2c1ccc1ccccc12	3%
CCOC(=O)c1cc(C#N)c(N2CCOCC2)nc1-c1ccccc1	-6%
Cc1cc2c(n1-c1ccc(C(N)=O)cc1)CC(C)(C)CC2=O	-5%
CCOC(=O)C1(Cc2cccc(Cl)c2)CCCN(C(=O)c2cn[nH]c2)C1 (stereo not drawn)	-8%
COC(=O)c1ccc(C23CC4(C2)[C@H](CN(Cc2ccc(-c5ccccc5)cc2)[C@@H]4c2ccccc2)C3c2ccc(Cl)nc2)cc1 (stereo partly drawn)	5%
COc1cccc(CN2CCc3nc(N4CCN(C)CC4)ncc3C2)c1	13%
CC1CCCC(C)N1CCCNC(=O)c1ccc2nc(N3CCOCC3)sc2c1 (stereo not drawn)	-20%
CC(C)[C@H](NC(=O)c1ccc(F)cc1)C(=O)OCC(=O)NC(=O)c1cccn1C	6%
Cc1ccccc1NC(=O)Cn1cc(C(=O)c2cccs2)c2ccccc21	-6%
C=CCOc1cccc(/C=N/NC(=O)CN2CCCCC2)c1	-23%
CCCCC/C=C\C/C=C\C/C=C\C=C\C(O)CCCC(=O)O (stereo not drawn)	20%
Cc1cc(C(=O)CN2C(=O)NC3(CCCc4sccc43)C2=O)c(C)n1-c1ccc(Cl)cc1 (stereo not drawn)	-5%
COC(=O)/C=C1\SC(=Nc2ccccc2)NC1=O	?
O=C(CN1CCN(c2ccccn2)CC1)Nc1cccc(S(=O)(=O)N2CCCC2)c1	9%
CCOc1ccccc1NC(=O)Cn1c(=O)n(Cc2ccccc2)c(=O)c2c(C)c(C(=O)N(C)C)sc21	0%
C[C@H](CO)N1C[C@H](C)[C@@H](CN(C)C(=O)NC2CCCCC2)Oc2c(NS(=O)(=O)c3ccccc3)cccc2C1=O	20%
Cc1nn(C)c2ncc(C(=O)c3cc(F)ccc3O)cc12	-2%
CN1CCN(c2ccc(NC(=O)CSc3nnnn3-c3ccccc3F)cc2)CC1	4%
CN(c1ccc(F)cc1)S(=O)(=O)c1ccc(Cl)c(C(=O)NC2(C)CCS(=O)(=O)C2)c1 (stereo not drawn)	26%
COc1ccc(NC(=O)CSc2nnc3ccc(-c4ccncc4)nn23)cc1OC	-19%
COCCn1nnnc1SCC(=O)N1CCCCC1	-10%
Cc1ccccc1CNC(=O)c1ccc(Cl)c([N+](=O)[O-])c1	-3%
Cc1ccccc1OCC(=O)N/N=C/c1cccn1C	-15%
O=C(NCc1ccc2c(c1)OCO2)c1cc2ccccc2oc1=O	13%

(continued)
SMILES	VDR inhibitor
COc1ccccc1-c1cc(C(F)(F)F)nc(S(=O)(=O)CCCC(=O)Nc2cccnc2Cl)n1	?
CCC(=O)Nc1nnc(S(=O)(=O)N2CCCC2)s1	0%
CCCC(=O)NC(=S)Nc1ccc(CN2CCOCC2)cc1	-1%
O=C1CN(C(=O)COC(=O)c2ccc(N3CCCCCC3)c([N+](=O)[O-])c2)c2ccccc2N1	1%
Cc1ccnc(N2C3CCC2CC(O)(c2ccccc2)C3)n1 (stereo not drawn)	7%
Cc1nc(Cl)sc1C(=O)Nc1cccc(C(F)(F)F)c1	0%
CC(=O)N/C(=C\c1ccc(Br)s1)C(=O)O	-16%
Nc1c(N(Cc2ccco2)C(=O)COc2ccccc2Cl)c(=O)[nH]c(=O)n1Cc1ccccc1	-23%
O=C(Nc1cccc(Cl)c1)OCc1cn(-c2ccc(Cl)cc2)nn1	-12%
CC(C)CN(Cc1cc2ccccc2[nH]c1=O)C(=O)c1cccnc1	-6%
C=CCSc1nc2sc(C)c(C)c2c(=O)[nH]1	-5%
O=S(=O)(c1ccccc1F)N1CCN(CCc2ccccc2)CC1	-3%
Cc1ccc(/C=N\NC(=O)C2CN(S(=O)(=O)c3ccccc3)CCN2S(=O)(=O)c2ccccc2)cc1 (stereo not drawn)	-4%
O=C(Cc1cccs1)Nc1ccc(Cl)cc1	2%
O=C(O)CN=C1NC2(CCCC2)Cc2ccccc21	2%
Cc1ccc(-n2c(-c3ccc(Cl)cc3)n[nH]c2=S)cc1	?
O=C(OCCN(C1=NS(=O)(=O)c2ccccc21)c1ccccc1Cl)c1ccc(Cl)cc1	12%
COc1cccc(NS(=O)(=O)c2ccc3c(c2)C2C=CCC2C(c2ccc(C(=O)O)cc2)N3)c1 (stereo not drawn)	?
CC1=C(C(=O)OCc2ccccc2)C(c2ccccc2OS(=O)(=O)c2ccccc2[N+](=O)[O-])NC(=O)N1CCCC(=O)O (stereo not drawn)	-15%
N=c1oc2cc(O)ccc2cc1C(=O)Nc1ccc(Br)cc1	-13%
CC(=O)Nc1ccc(S(=O)(=O)Oc2ccc(C(=S)N3CCCCC3)cc2)cc1	?
CCOC(=O)C1CCN(C(=O)c2cccc(NS(=O)(=O)c3ccc(F)c(F)c3)c2)CC1	-17%
CCOC(=O)c1sc(NC(=O)C2CC(=O)N(c3ccccc3C)C2)nc1C (stereo not drawn)	7%
Cc1ccc(-c2cc(C(=O)Nc3cnn(C(C)C)c3)no2)cc1	14%
CCn1c(=O)cc(SCC(=O)Nc2cccc(SC)c2)c2ccccc21	-6%

4 of the compounds above, as labelled records.
Cc1nc(Cl)sc1C(=O)Nc1cccc(C(F)(F)F)c1
  VDR inhibitor = 0%
CC(=O)N/C(=C\c1ccc(Br)s1)C(=O)O
  VDR inhibitor = -16%
Nc1c(N(Cc2ccco2)C(=O)COc2ccccc2Cl)c(=O)[nH]c(=O)n1Cc1ccccc1
  VDR inhibitor = -23%
O=C(Nc1cccc(Cl)c1)OCc1cn(-c2ccc(Cl)cc2)nn1
  VDR inhibitor = -12%

Looked up by compound from the entries so far, 6 records:
SMILES	VDR inhibitor
O=C(NCc1ccc2c(c1)OCO2)c1cc2ccccc2oc1=O	13%
C=CCOc1cccc(/C=N/NC(=O)CN2CCCCC2)c1	-23%
Cc1ccc(/C=N\NC(=O)C2CN(S(=O)(=O)c3ccccc3)CCN2S(=O)(=O)c2ccccc2)cc1 (stereo not drawn)	-4%
CC(C)CN(Cc1cc2ccccc2[nH]c1=O)C(=O)c1cccnc1	-6%
O=C1CN(C(=O)COC(=O)c2ccc(N3CCCCCC3)c([N+](=O)[O-])c2)c2ccccc2N1	1%
CC(C)[C@H](NC(=O)c1ccc(F)cc1)C(=O)OCC(=O)NC(=O)c1cccn1C	6%

Next part:
SMILES	VDR inhibitor
CSc1nsc(SC)c1C(=O)OCC(F)(F)F	?
N#CCc1ccc(NC(=O)c2ccc(S(=O)(=O)N3CCCC3)cc2)cc1	10%
CCn1c(N)c(C(=O)NCCOC)sc1=S	-10%
CCCC(O)(c1ccc(Cl)cc1)C(CN1CCOCC1)c1ccc(Cl)cc1 (stereo not drawn)	-7%
CC(C)Cn1c(C23CC4CC(CC(C4)C2)C3)n[nH]c1=S	-21%
CN(C)/C=C1\NC(=S)N(c2ccc(Cl)cc2)C1=O	1%
COc1cccc(C(=O)O[C@H]2[C@H](Cc3ccccc3)NS(=O)(=O)[C@H]3C[C@@H]4C=C[C@]23O4)c1	-14%
CCc1nn(CC(=O)NC2CC2)c(=O)c2cc3c(OC)cccc3n12	6%
Cc1cc(C(=O)Nc2ccccc2C(=O)N2CCCCC2)ccc1[N+](=O)[O-]	36%[activator]
COC(=O)c1cc2c(cc1Cl)SC(=NCCCN1CCOCC1)NS2(=O)=O	-10%
COc1ccc(-c2oc3ncnc(NCCCN4CCOCC4)c3c2-c2ccc(OC)cc2)cc1	11%
O=C(O)CC(Cc1ccccc1)(C(=O)O)c1ccccc1 (stereo not drawn)	?
Nc1ccc(N2CCOCC2)c2nonc12	89µM*
CN(C)CCCNCCCNC(=O)/C=N/O	-3%
CCC(C)NS(=O)(=O)c1ccc(NC(=O)C2CCCO2)cc1 (stereo not drawn)	1%
COc1ccc(C(=O)NCCc2nnc3ccc(SCC(=O)N4CCOCC4)nn23)cc1	-3%
CN(C)c1ccc(CNS(=O)(=O)c2ccc3c(c2)NC(=O)CS3)cc1	-12%
Cc1ccccc1S(=O)(=O)Cc1ccc(C(=O)N2CCN(c3ccc(F)cc3)CC2)o1	-5%
CCCCCn1c(NC(=O)c2ccco2)c(S(=O)(=O)c2ccc(C)cc2)c2nc3ccccc3nc21	?
CC1CCCCC12NC(=O)N(CC(=O)c1ccc3c(c1)OCO3)C2=O (stereo not drawn)	-3%
COc1ccc(S(=O)(=O)NC2CC(=O)N(c3ccc4c(c3)OCCO4)C2)cc1 (stereo not drawn)	-15%
COc1ccc(-c2csc(CCn3nc(C)cc3C)n2)cc1	4%
COc1ccc(NC(=O)CN2CCCN(Cc3ccccc3)S2(=O)=O)cc1	-1%
O=Cc1cn(CC(O)CN2CCCCC2)c2ccccc12 (stereo not drawn)	8%
Nc1ccc(S(=O)(=O)Nc2nccc(/C=C/c3ccccc3F)n2)cc1	13%

The listing continues.
SMILES	VDR inhibitor
O=C(c1ncc[nH]1)c1ccccc1C(=O)N1CCOCC1	13%
O=[N+]([O-])c1cccc(NC(=S)Nc2nc(-c3ccccc3Cl)cs2)c1	-10%
Cc1ccccc1-c1nc(CN2CCC(C(=O)N3CCC(C(N)=O)CC3)CC2)c(C)o1	-10%
O=C(COc1ccc(Br)cc1)Nc1ccc2c(c1)C(=O)NC2=O	-11%
CCOC(=O)CSc1nnc2c(n1)C1(C)CCC2C1(C)C (stereo not drawn)	-18%
Cc1cc(C)c(NC(=O)CSCc2c(C)noc2C)c(C)c1	-6%
CCN(CC)c1ccc(/C=N/NC(=S)NCc2ccccc2)c(O)c1	-4%
CCCCCCCCCCCCCC(=O)N[C@@H](C)[C@H](O)c1ccccc1	-1%&4%
Nc1nc(N(Cc2ccccc2)Cc2ccccc2)nc(C(F)(F)F)n1	-1%
CN(C)c1ccccc1C(=O)c1ccccc1N(C)C	1%
COCC1CCN(C(=O)c2cc(COc3ccccc3SC)on2)C1 (stereo not drawn)	12%
CN(C)C(CNc1ncnc2sccc12)c1ccccc1 (stereo not drawn)	7%
COCC(=O)N1CCC[C@@]2(CCN(C(c3ccccc3)c3ccccc3)C2)C1	?
O=CN1CCN(C(=O)COc2ccc(Cl)cc2Br)CC1	-6%
CCCC(=O)Nc1cc(S(=O)(=O)N2CCCCC2)ccc1N1CCOCC1	-3%
COCCN(C(=O)CSc1nnc(-c2ccccc2F)n1N)c1c(N)n(Cc2ccccc2)c(=O)[nH]c1=O	2%
Oc1sc(C=Nc2ccccc2)c2ccccc12	-15%
COC(=O)c1cc(S(=O)(=O)NCC(C)c2ccccc2)cn1C (stereo not drawn)	12%
CCc1ccc(C(O)(C(C)C)C(CN2CCOCC2)c2ccccc2)cc1 (stereo not drawn)	-6%
FC(F)(F)c1ccccc1NC(=S)NN=C1CCCCCC1	-1%
ClCCN1C2=NCCCN2c2ccccc21	1%
C=CCn1cc(Cl)cc(C(=O)Nc2ccccc2)c1=O	4%
CCCCn1c(N)c(N(CCOC)C(=O)COC(=O)COc2c(C)cc(C)cc2C)c(=O)[nH]c1=O	-11%
Cc1ccccc1NC(=O)c1ccc(S(=O)(=O)N2CCCC2)cc1	6%
Cc1cccc(OCC(=O)Nc2ccccc2C(F)(F)F)c1	2%

Continuation:
SMILES	VDR inhibitor
COc1ccc(CCNC(=O)c2ccc3c(c2)nc(C)n3-c2ccc(Br)cc2)cc1OC	13%
CCN(c1ccccc1)S(=O)(=O)c1cc(C(=O)NCc2ccccn2)ccc1C	8%
O=C(Nc1cccc(F)c1)NC1CCCc2ccccc21 (stereo not drawn)	4%
CC1COc2ccccc2N1C(=O)c1cccnc1Cl (stereo not drawn)	12%
CC1=CC(C)(C)Nc2ccc(OC(=O)CN3C(=O)c4ccccc4C3=O)cc21	-11%
CC(=O)Oc1ccc(-c2cccc(C(=O)O)c2)cc1	-1%
CN(C)/C=C(/C(=O)c1ccc(Cl)cc1)n1cncn1	13%
CCOC(=O)c1c(NC(=O)c2c(C(=O)O)cccc2[N+](=O)[O-])sc2c1CCCC2	?
CC(=O)Nc1ccc(Br)c2ccccc12	-8%
Cc1cc2ncn(/N=C/c3ccc4c(c3)OCO4)c2cc1C	4%
CCc1ccc(OCC(=O)NC(=S)Nc2ccc(S(=O)(=O)NC3CCCCC3)cc2)cc1	5%
CC(C)CCNC(=O)COc1ccc2c3c(c(=O)oc2c1)CCC3	10%
CCOc1ccc(NC(=O)CN(C)C(=O)CC2OC(=O)c3ccccc32)cc1OCC (stereo not drawn)	-15%
CC(C)N1CCc2c(sc(NC(=O)CCS(=O)(=O)c3ccccc3)c2C#N)C1	-7%
CCCCC(=O)Nc1cccc(-c2nnc(-c3ccccc3)o2)c1	2%
CCN1CCc2nc(NC(=O)c3ccc(S(=O)(=O)N(C)C)cc3)sc2C1	7%
CCC(Sc1ccc2nnc(-c3cccnc3)n2n1)C(=O)O (stereo not drawn)	-15%
COc1ccc(NS(=O)(=O)c2ccc3c(c2)OCCO3)cc1OC	12%
CN(Cc1cccs1)C(=O)Cn1cnc2ccccc2c1=O	-5%
CCc1cccc(C)c1NC(=O)COC(=O)Cc1ccsc1	-11%
O=C1CCN(Cc2ccccc2)CCN1CCSc1ccccc1	-17%
O=C(COC(=O)c1ccc2[nH]c3c(c2c1)CCCC3)Nc1ccc(Cl)cc1Cl	-18%
CN1CCc2nc3sc(C(=O)Nc4ccccc4OC(F)(F)F)c(N)c3cc2C1	17%
COC(=O)Cc1cc(=O)[nH]c(/N=C(\N)Nc2ccccc2)n1	-4%
O=C(CS(=O)(=O)c1ccccc1)Nc1ccc(N2CCOCC2)cc1	13%
CN(C)CCNC(=O)c1sc2nc(-c3ccccc3)cc(C(F)(F)F)c2c1N	-21%
CCN(CC)CCNC(=O)c1ccc(NC(=O)c2cc(S(=O)(=O)N3CCCCC3)ccc2C)cc1	3%
